# Screening data deposited in PubChem by several laboratories.
# PABP FP inh – PABP poly(A) RNA binding inhibitors, primary screen, biochemical, fluorescence polarization, uHTS | inhibition, % at 35 µM | AID 2014, 2009 | 290,000 compounds, 1% hits | Polyadenylate-binding protein 1 (Homo sapiens), P11940;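 active = 50% or more with normal probe brightness, or confirmed in later tests; inconclusive = above 50% with abnormal brightness, or retests that disagree; inactive = below 50% or failed in later tests; about a fifth of its hits are not listed in these tables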;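 note: calls also rest on retests at 20 µM and on dose response follow-up; controls were probe without protein and protein plus probe with vehicle; some compounds called inactive have numbers as strong as hits; many hits fall short of the cut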
# eIF4H FP inh – human eIF4H binding inhibitors, primary screen, translation initiation inhibitor project, biochemical, uHTS, fluorescence polarization | Eukaryotic translation initiation factor 4H (Homo sapiens), Q15056 | inhibition, % at 35 µM | 290,000 compounds, 0.94% hits | eIF4H fluorescence polarization binding assay;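 active = 50% or more with normal probe brightness, or confirmed in later tests; inconclusive = above 50% with abnormal brightness, or retests that disagree; inactive = below 50% or failed in later tests; about a fifth of its hits are not listed in these tables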;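 note: calls also rest on retests at 20 µM and on dose response follow-up; 0% = protein and probe with vehicle and 100% = probe without protein; strong numbers were not always called active; many hits fall short of the cut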
# HIV Env fusion – inhibitors of HIV-1 Env-driven cell-cell fusion, primary screen, HeLa-JRFL effector, CEM21 target cells, luciferase | inhibition, % at 12.3 µM | 360,000 compounds, 1.1% hits;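 active = mean replicate inhibition score of at least 50 and every replicate individually at or above 50; inconclusive = only one of the two criteria met; inactive = mean below 50 and not all replicates reaching 50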;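 note: 0% = plate neutral controls and 100% = maraviroc near 300 nM; one replicate is shown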
# UUG fidelity – modulators of yeast start codon fidelity, primary screen, whole organism, S. cerevisiae, single point, plate reader | S. cerevisiae UUG-firefly luciferase reporter, luminescence/redox ratio | activity score, % at 18.7 µM | 350,000 compounds, 0.13% hits | AID 602363, 2012;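 active = replicate mean at a twofold rise or more, about +100% in these data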;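 note: firefly luciferase made from a UUG start codon reports start codon fidelity; reporter light over untreated wells divided by growth signal over untreated wells; some hits fall short of that in this replicate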
# MT1-MMP act inh – blockers of MT1-MMP proenzyme processing, primary screen, HT1080 RFP-PRO-GFP cells, GFP/RFP fluorescence; Matrix metalloproteinase-14 (Homo sapiens), P50281; GFP/RFP ratio fluorescence, overnight; percent of plate control window, DMSO zero; GFP/RFP ratio change, % at 20 µM; 360,000 compounds, 0.061% hits; AID 651647, 2012;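 active = GFP/RFP ratio change of at least 30% with cell ATP level not reduced by more than half and red fluorescence within 50% of control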; note: strong numbers were not always called active
#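 system = RFP-PRO-GFP reporter HT1080 cells | dosing = 20 µM single dose, 1% DMSO | timing = overnight cell settling, then overnight compound exposure, 37 °C, 5% CO2 | read-out basis = GFP/RFP fluorescence ratio | controls = DMSO and RFP-L50D-GFP cell wells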
# Rce1 inh – yeast Rce1p protease inhibitors, primary screen, biochemical, fluorescence, cell-free homogeneous; AID 2563, 2010; yeast membranes, quenched prenylated peptide cleavage fluorescence; calls only; 290,000 compounds, 0.27% hits;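 active = fall in fluorescence gain of 50% or more versus controls, with final raw signal at or below 3038400; inconclusive = same 50% fall but final raw signal above 3038400; inactive = fall in fluorescence gain under 50%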;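 note: plate controls were neutral control wells for no effect and wells lacking membranes for full effect; tested at 10 µM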
# Target sequence (Q03530 whole entry, looked up): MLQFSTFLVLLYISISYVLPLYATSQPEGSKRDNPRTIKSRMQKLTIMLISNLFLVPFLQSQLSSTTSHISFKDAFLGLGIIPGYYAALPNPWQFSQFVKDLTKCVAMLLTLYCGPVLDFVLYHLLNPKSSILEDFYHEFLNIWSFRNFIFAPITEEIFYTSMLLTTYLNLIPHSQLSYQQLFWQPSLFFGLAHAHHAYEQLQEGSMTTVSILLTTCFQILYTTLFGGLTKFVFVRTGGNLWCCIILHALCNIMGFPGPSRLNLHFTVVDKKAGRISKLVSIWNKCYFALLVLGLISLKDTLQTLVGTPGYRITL
# CSC inhib – cancer stem cell viability inhibitors, primary screen, luminescence; cancer stem cell-like cells viability; inhibition, % at 7.5 µM; 300,000 compounds, 1.1% hits; AID 2717, 2010;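 active = mean at 75% or more and at least half the replicates too; inconclusive = mean and replicates disagree; tested in HMLE shEcad cells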;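 note: 0% = median of negative and 100% = median of positive control wells; the first replicate is given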
# eIF4H FP inh retest – also measured in eIF4H FP inh; calls as there; inhibition, %; compound at 20 µM; confirmation average;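 mean of two retest wells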
# PABP FP inh retest – recorded beside PABP FP inh, whose call it bears; inhibition, %; compound at 20 µM; confirmation repeats;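 mean of two retest wells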
# MT1-MMP act inh RFP – also measured in MT1-MMP act inh; calls as there; RFP signal change, %; measured here: RFP expression control read;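 0 = vehicle wells; hits needed this value within 50% of zero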
# * = called active by the depositor; i = inactive; ? = inconclusive; . = not tested or not shown; & = joins results of further samples.
SMILES,PABP FP inh,eIF4H FP inh,HIV Env fusion,UUG fidelity,MT1-MMP act inh,MT1-MMP act inh RFP,Rce1 inh,CSC inhib,others
Cc1ccc(C(=O)N(c2ccccc2)C2CC(C)N(C(=O)c3ccco3)c3ccccc32)cc1 (centres undefined),1,2,6,-19,-15,-22,i,-2,
CCc1ccc(CNCCNCC(C)O)cc1 (centres undefined),6,-2,6,-7,6,1,i,14,
COc1ccc(S(=O)(=O)N2c3cc(Cl)ccc3Oc3nc4ccccc4nc32)cc1,0,-2,.,-13,15,0,i,61,
O=S(=O)(/C=C/c1ccccc1)c1ccccc1,2,-5,-125,-8,1,3,i,-15,
OCCCc1cn(CC2CCCCC2)nn1,0,-10,-22,-3,6,5,i,6,
CS(=O)(=O)c1ccc(Nc2nc(C(N)c3ccccc3)cs2)cc1 (centres undefined),.,.,-2,-8,-9,-3,.,.,
COc1ccc(CN(Cc2ccc(C(=O)O)cc2)C(=S)Nc2cccc(C)c2)cc1OC,10,-4,-13,-21,.,.,i,0,
O=C(N[C@H](CO)Cc1ccccc1)[C@H]1O[C@@H](n2ccc(=O)[nH]c2=O)[C@H](O)[C@@H]1O,.,.,1,-13,2,2,.,.,
CCOc1ccc(NC2=CC(=O)CC(c3ccco3)C2)cc1 (centres undefined),1,-2,10,.,-7,-2,i,0,
Cc1ccc(S(=O)(=O)N2CCOCC2)cc1NS(=O)(=O)c1ccc(F)c(F)c1,.,.,.,-23,-3,-3,.,-5,
O=C(O)CCc1nn2c3ccccc3nc2n(-c2ccccc2)c1=O,0,-3,.,8,1,0,i,-15,
CCN(CC)CCNC(=O)Cc1c(C(=O)O)n(CC)c2ccccc12,-4,-7,.,-20,1,1,i,-10,
O=C(CNC(=O)c1ccc(Cl)cc1Cl)OCCOc1ccccc1,.,.,4,-9,1,0,.,-13,
O=C(CNC(=O)c1ccc(N2C(=O)c3ccccc3C2=O)cc1)OCC(=O)c1ccc(Cl)cc1,3,-3,3,-11,-1,0,i,-9,
O=C(O)C1C2C=CC(C2)C1C(=O)NCCCn1ccnc1 (centres undefined),13,10,-60,-19,1,0,i,-4,
CCc1cccc(NC(=O)CCCn2nc(C)c3c(C)n(-c4ccccc4)nc3c2=O)c1,2,-16,24,20,-2,-8,i,-2,
CCCSc1ccc([C@H]2N[C@@](C)(C(=O)OC)[C@H]3C(=O)N(C)C(=O)[C@@H]23)cc1,.,.,1,-10,-2,6,i,0,
O=C(O)C1CCCCC1C(=O)N1CCN(S(=O)(=O)c2ccc(F)cc2)CC1 (centres undefined),-1,-7,.,-14,1,6,i,-12,
O=C(O)C1C2CCC(C2)C1C(=O)N1CCCC1 (centres undefined),-9,-6,-38,-23,-2,-2,i,-17,
COc1ccccc1Nc1ccc([N+](=O)[O-])cc1N,2,10,-8,-27,-5,-2,i,8,
Cc1cccc2c1N(CCOc1ccc(C(C)(C)C)cc1)C(=O)C2=O,3,-5,.,.,10,-4,i,10,
Cc1nc2scc(C)n2c(=O)c1S(=O)(=O)NCC1CCN(Cc2ccc(Cl)cc2)CC1,.,.,22,-11,0,-2,i,66,
COc1ccc(CN2CCN(Cc3ccc(OC)c(OC)c3OC)CC2)cc1,39,7,3,-6,1,3,i,-8,
O=C(NCCCO)c1ccc(CSc2nc3ccccc3c(=O)[nH]2)cc1,9,98,4,8,-1,0,i,6,eIF4H FP inh retest=2;PABP FP inh retest=4
Cc1ccccc1NC(=O)CCSc1nnnn1-c1ccccc1,-2,-6,-16,-3,9,0,i,1,
SMILES,PABP FP inh,eIF4H FP inh,HIV Env fusion,UUG fidelity,MT1-MMP act inh,MT1-MMP act inh RFP,Rce1 inh,CSC inhib,others
Cc1c(Br)c(-c2n[nH]c(=S)n2Cc2ccco2)nn1C,2,8,-4,.,1,1,i,10,
CC(C)CC(=O)C(=O)O,.,.,20&31,-10&-9,-1&4,0&3,.,-2&2,
CCOC(=O)C(C)/C(C)=N/NC(=O)c1cc2ccccc2cc1O (centres undefined),64,47,-17,.,-22,-13,i,17,eIF4H FP inh retest=8;PABP FP inh retest=2
CCCn1cnc2c(SCc3ccccc3Cl)nc(N)nc21,.,.,2,-16,5,2,.,.,
COC(=O)c1ccc(-c2ccc([C@H]3[C@H]4C=CC[C@@H](C)[C@@H]4C(=O)N3Cc3ccccc3)c(F)c2)cc1,-11,-7,-17,-7,4,-3,i,-1,
O=c1cc(NCc2ccccc2)nc2ccccn12,-2,-1,-3,.,0,0,i,-14,
Nc1ccc(N2CCCCC2)cc1N1CCCCC1,11,4,.,.,47*,16*,i,26,
COc1cc(/C=C2/C(=O)NN(c3ccc(F)cc3)C2=O)cc([N+](=O)[O-])c1O,23,-6,10,-17,3,1,i,.,
C=CC[C@@H](CC(=O)N[C@@H](CO)Cc1ccccc1)C(=O)NC[C@@H](OC(=O)[C@@H](CC=C)CC(=O)OC(C)(C)C)c1ccccc1,.,.,-8,12,-7,-10,.,-6,
Cc1nn(C)cc1CNC(=O)Nc1ccc(Cl)c(Cl)c1,3,6,-173,-24,0,4,i,-5,
O=C(O)c1ccccc1OCCOc1ccccc1,-15,?,.,-3,-1,1,i,-15,
CC(=O)Nc1ccc(N2C(=O)CSC2c2ccc([N+](=O)[O-])cc2)cc1 (centres undefined),-6,-5,1,-7,-2,2,i,1,
CCC(C)[C@H](NC(=O)[C@@H]1Cc2ccccc2CN1C(=O)OC(C)(C)C)C(=O)NCC1CCC(C(=O)O)CC1 (some centres undefined),9,10,4,-1,6,3,i,-7,
Cc1cc(C(=O)Nc2ccc3c(c2)OCCO3)c(C)o1,2,9,-146,-33,-1,3,i,9,
COc1ccc(/C=C(\NC(=O)c2ccco2)C(=O)NCCc2nc3ccccc3[nH]2)cc1,-1,1,1,-24,0,2,i,7,
COC(=O)c1cn(Cc2cc(OC)ccc2OC)cc(F)c1=O,-13,14,.,-22,0,2,i,-12,
CCC1(CC)Cc2ccccc2C2=C(C(=O)N3CCCCC3)C(=O)C(=O)N21,0,5,-3,.,-2,4,i,-9,
CCOC(=O)C(NC(=O)c1ccccc1Cl)(Nc1sc2c(c1C(N)=O)CCC2)C(F)(F)F (centres undefined),-12,11,19,-3,-15,-2,i,.,
O=C(OCC(=O)N1CCc2ccccc2C1)c1ccc(N2CCOCC2)c([N+](=O)[O-])c1,-2,-4,3,4,-3,2,i,2,
Brc1ccccc1Cn1c(-c2cncs2)nc2ccccc21,5,9,15,-9,2,-4,i,5,
Cc1onc(-c2c(Cl)cccc2Cl)c1C(=O)N=C(N)N1CCCC1,-7,-6,-1,0,0,-3,i,5,
CC1CCC(NC(=O)CSc2nnc(-c3cccnc3)o2)CC1 (centres undefined),.,.,2,-5,-3,1,.,.,
COc1ccc(CN2C(=O)C(CC(=O)NCCc3ccccn3)CC(C(=O)N(C)C)=C2C)cc1 (centres undefined),.,.,-23,-14,0,2,.,.,
CC(NC(=O)C1CCCC1)c1ccccc1 (centres undefined),.,.,2,-20,1,3,.,.,
COc1ccc(NC(=O)Nc2ccccc2SC)cc1,12,2,-22,1,1,-2,i,18,

# Next part; the last two above are carried over.
SMILES,PABP FP inh,eIF4H FP inh,HIV Env fusion,UUG fidelity,MT1-MMP act inh,MT1-MMP act inh RFP,Rce1 inh,CSC inhib,others
CC(NC(=O)C1CCCC1)c1ccccc1 (centres undefined),.,.,2,-20,1,3,.,.,
COc1ccc(NC(=O)Nc2ccccc2SC)cc1,12,2,-22,1,1,-2,i,18,
COC(=O)c1cc(C(=O)N2CCN(c3cccc(C)c3C)CC2)cc([N+](=O)[O-])c1,4,4,-17,.,-7,-17,i,57,
CN(C)CCCN(C(=O)CCOc1ccccc1)c1nc2ccc(F)cc2s1,-6,14,10,13,0,-2,.,.,
Cc1ccc(CN2CC(C(=O)N3CC=C(c4ccccc4)CC3)CC2=O)cc1 (centres undefined),13,0,9,0,0,0,i,-11,
O=C(CCC(=O)N1CCCc2ccccc21)N1CCN(S(=O)(=O)c2ccccc2)CC1,-7,-13,.,-5,1,6,i,-8,
N/C(=N\OC(=O)Cc1ccccc1[N+](=O)[O-])c1ccc(Br)cc1,-7,6,-2,.,6,-9,i,18,
C=CCN(C(=O)c1csnn1)C(C(=O)NC1CCCC1)c1ccc(Cl)cc1 (centres undefined),-6,9,-4,-19,1,2,i,-2,
O=C(Nc1cccc(-n2cccn2)c1)C1CCCN(Cc2ccccc2F)C1 (centres undefined),0,5,-9,3,-3,-5,i,6,
CCC(Cc1ccccc1)NS(=O)(=O)c1ccc2c(c1)NC(=O)CS2 (centres undefined),2,-3,8,-2,0,-4,i,-10,
COc1ccc(NC(=O)N2CCc3cc(OC)c(OC)cc3C2)cc1,0,-13,5,-16,-3,-3,i,-21,
N#CCCCCn1ccc(NC(=O)c2ccc(Cl)cc2O)n1,.,.,2,.,1,0,i,-10,
N#Cc1ccc2c(c1)nc1ccccn12,3,-3,-34,.,-2,2,?,-8,
CCNc1nc(NC(C)C)nc(N(n2cnnc2)S(=O)(=O)c2ccc(C)cc2)n1,23,-6,-24,.,3,4,i,-2,
Cc1ccc(-c2nc3ccccc3o2)cc1NC(=O)c1ccc2c(c1)OCO2,-6,-6,-280,-13,0,4,i,25,
COc1cccc2sc3ccc(C#Cc4ccc(N)cc4)cc3c(=O)c12,-4,-1,-76,-21,4,2,i,21,
CC(=O)Oc1ccccc1N(C(C)=O)S(=O)(=O)c1cccc([N+](=O)[O-])c1,28,45,0,.,3,5,i,-5,
Cc1c(C(=O)OCCOC(C)C)[nH]c2c1C(=O)CC(C)(C)C2,-10,4,6,-6,2,-1,i,21,
COc1ccccc1NC(=O)CN1CCN(c2ccc(Cl)cc2)CC1,9,1,.,0,1,-1,i,-2,
CC1(C)C(=O)C=C(N2CCCCC2)c2ccccc21,.,.,36,-5,0,0,.,.,
Cn1c(=O)c2c(ncn2CC(=O)N2CCN(c3ccccc3F)CC2)n(C)c1=O,0,7,-49,3,0,0,i,-15,
COc1ccc(C(=O)c2c(C(F)(F)F)oc3c2C(=O)c2ccccc2C3=O)cc1OC,9,-7,.,-59,-3,-17,i,102*,
CCOC(=O)N1C2C=CC(C2)N1C(=O)OCC,.,.,-1,-9,-1,4,.,.,
Cc1ccc2nc3c(c(Nc4ccccc4)c2c1)CCC3,-5,-11,10,.,5,-7,i,-5,
COc1ccc(COCC(O)CN2CCCCC2)cc1OC (centres undefined),-1,6,-9,-2,-3,0,i,-13,
CN1C(=O)C(C)(C)c2cc(S(=O)(=O)N3CCCC3C(=O)NCc3ccc(F)cc3)ccc21 (centres undefined),-3,-9,24,-7,-2,2,i,-1,
Cc1cccc(NC(=O)CSc2cn[nH]n2)c1,-4,2,-3,-14,1,5,i,8,
CCOC(=O)c1ccc(N/C(=N/S(=O)(=O)c2ccccc2)c2ccccc2)cc1,5,1,.,-20,-6,-2,i,.,
CCOc1ccc2nc(SCC(=O)Nc3cc4c(cc3C(C)=O)OCO4)[nH]c2c1,0,13,.,-13,5,-4,i,-20,
O=C(CCC1CCCC1)NCc1ccccn1,-11,-1,10,-39,-5,-4,i,-17,
